TRPV1 PAM: enhances activation of the human vanilloid receptor TRPV1; potentiation, % at 8.33 µM; 320,000 tested, 0.02% active; Q8NER1; TRPV1-expressing cells, Fluo-8 calcium influx, capsaicin EC20 potentiation; host cell line not named in the record; control for the full effect not named in the record; AID 540277; active means potentiation above 80%; inconclusive means 30% to 80%; inactive means below 30%; also: 0% is about no effect
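Cells expressing TRPV1 were dye-loaded with Fluo-8 and read kinetically: 10 s baseline, 3 min after compound (agonist portion), then 2 min after EC20 capsaicin (allosteric enhancer portion). Calcium-bound dye fluorescence at 480/520 nm.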
TRPML1 agonist: agonists of human TRPML1 channel; TRPML1-expressing cells, Ca2+ dye fluorescence, FDSS; host cell line not named in the record; reference of the full effect not given here; 410,000 tested, 0.12% active; activation, % (test concentration not listed); in the data active = activation above about 50%; inconclusive = about 30% to 50%; inactive = below about 30%; also: 0% is about no effect; the text of the record puts the active cut at 80%
Target sequence (Q9GZU1 whole entry, looked up): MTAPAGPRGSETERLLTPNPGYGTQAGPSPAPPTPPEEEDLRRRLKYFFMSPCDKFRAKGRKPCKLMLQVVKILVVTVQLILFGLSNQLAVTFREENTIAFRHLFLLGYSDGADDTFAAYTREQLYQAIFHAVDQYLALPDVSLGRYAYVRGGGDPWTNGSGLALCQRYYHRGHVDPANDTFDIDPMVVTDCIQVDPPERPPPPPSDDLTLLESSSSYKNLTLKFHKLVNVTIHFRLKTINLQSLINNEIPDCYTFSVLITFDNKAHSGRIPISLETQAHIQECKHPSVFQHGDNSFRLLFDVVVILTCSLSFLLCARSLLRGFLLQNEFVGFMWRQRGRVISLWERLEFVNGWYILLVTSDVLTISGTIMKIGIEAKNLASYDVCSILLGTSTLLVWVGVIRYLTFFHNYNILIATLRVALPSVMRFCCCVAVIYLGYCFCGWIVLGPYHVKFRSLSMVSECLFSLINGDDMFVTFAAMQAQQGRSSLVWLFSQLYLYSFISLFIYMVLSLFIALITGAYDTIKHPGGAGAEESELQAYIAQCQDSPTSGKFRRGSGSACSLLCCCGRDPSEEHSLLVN
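Cells: TRPML1-DL, 1X Tet inducer, ~16 h at 37 degrees C/5% CO2. Dye: ABD Ca8 no-wash + quencher, 45-90 min RT. Read: 10 s baseline, compound add, 110 s agonist phase; 54-4 EC80 (4uM final), 110 s antagonist phase.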
ClpP mod: qHTS Assay for Activators of ClpP; 340,000 tested, 1.9% active; ATP-dependent Clp protease proteolytic subunit (Bacillus subtilis (strain 168)), P80244; Potency, µM (series often up to 57.5 µM), inactives show top-dose activity change, negative = active; purified B. subtilis ClpP, FRET peptide cleavage, 20 min; active = well fitted falling curve with a large enough effect; inconclusive = small, poorly fitted or top-dose-only effect; inactive = no such curve, though single readings can be large or run the other way; also: potency is read from the fitted curve at half-maximal effect; the source files actives as falling curves though it sought activators and does not explain the sign; nearly all actives have a fitted effect of over 65% in size; many hits overshoot -100%
Target sequence (P80244 whole entry, looked up): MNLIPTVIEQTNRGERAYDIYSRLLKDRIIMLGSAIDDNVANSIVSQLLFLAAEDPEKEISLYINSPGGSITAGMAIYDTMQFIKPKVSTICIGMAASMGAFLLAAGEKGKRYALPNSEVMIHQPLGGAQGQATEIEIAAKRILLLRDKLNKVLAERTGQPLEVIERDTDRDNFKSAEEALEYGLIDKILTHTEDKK
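Buffer: 100 mM Tris/HCl pH8, 100 mM KCl, 0.05% low protease BSA, 2.5% glycerol, 0.01% Tween-20. ClpP 10 microg/mL final; 20 min RT; delta FRET normalized to ADEP and DMSO controls.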
PINK1 modulator: modulators of PINK1 expression; Potency, µM (highest dose often 76.6 µM), inactives show at the top dose activation (PINK1 increase), most hits filed as activators; 410,000 tested, 0.2% active; PINK1 immunofluorescence, high-content cytometry, 24 h; AID 624263; active = well fitted activation curve with a large enough effect; inconclusive = small, poorly fitted or top-dose-only effect; inactive = flat fitted curve, though single readings scatter; cell line not stated here;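 also: potency is read from the fitted curve at half-maximal effect; % of control where 0% means no effect; nearly all actives have a fitted effect of over 65% in size; a mitochondrial uncoupler was the plate control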
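A stable cell line was treated with compounds at 5 concentrations for 24 hours, with CCCP as control. PINK1 levels and mitochondrial localization were measured by immunofluorescence with mitochondrial, cell and nuclear markers after fixation, read by laser-scanning cytometry.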
Sfp PPTase inh: blocks B. subtilis Sfp PPTase activity; Biochemical Sfp PPTase activity, qHTS; Potency, µM, for inactives: max response, negative = inhibition, most hits filed as inhibitors; 310,000 tested, 3.5% active; AID 1490; active = well fitted inhibition curve with a large enough effect; inconclusive = small, poorly fitted or top-dose-only effect, or another doubt; inactive = no such curve, though single readings can be large or run the other way;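 also: the enzyme is Sfp with the accession as filed and its product quenches rhodamine fluorescence; potency is read from the fitted curve at half-maximal effect; 0% = enzyme reaction without inhibitor and -100% = no enzyme wells; top concentration of the series not given in the record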
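Compounds were incubated with enzyme (final 15 nM) for 15 min at room temperature before substrate addition started the reaction. Fluorescence at 525 nm excitation, 598 nm emission was recorded immediately and after 30 minutes.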
Menin MLL FP FL: displaces fluorescein MLL peptide from human menin; FP activity change, % at 61.4 µM; Fluorescence polarization, fluorescein-MLL peptide displacement from menin; AID 1766; 290,000 tested, under 10 active; inconclusive = falling polarisation curve, or a change in total fluorescence; inactive = total fluorescence flat and polarisation flat or rising; no compound was filed as active; the % refers to the polarisation; negative = inhibition;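 also: % of control where 0% means no effect; inhibitors lower the polarisation; unlabelled MLL peptide was the positive control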
TRPML1 inh: inhibitors of human TRPML1 channel | Q9GZU1 | TRPML1-inducible cells, Ca2+ dye fluorescence, FDSS; stronger effect = lower value; inhibition of EC80 agonist-evoked calcium signal | activity change, negative = inhibition, % (concentration not given with the values) | 390,000 tested, 0.02% active | AID 624415; in the data active means activity change below about -50%; inconclusive means about -30% to -50%; inactive means above about -30%;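 also: stimulus is agonist 54-4 at its EC80 concentration; % is scaled to controls: 0 for no effect and ±100 for the full control effect; compound concentration not given in the record; the text of the record puts the active cut at -80%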
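Calcium fluorescence in TRPML1-DL cells induced overnight with Tet: a 110 s read after compound pin addition, then a 110 s antagonist read after challenge with 54-4 at 4 uM final (EC80).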
* marks the source's active call; other numbers are inactive results; ? = inconclusive; · = no result given; & = joins results of further samples; [ ] = another dose, or the depositor's remark.

SMILES | TRPV1 PAM | TRPML1 agonist | ClpP mod | PINK1 modulator | Sfp PPTase inh | Menin MLL FP FL | TRPML1 inh
COc1ccc(CNC(=O)/C=C/[C@H]2O[C@@H](n3cnc4c(NC(=O)c5ccccc5)ncnc43)[C@H](O)[C@@H]2O)cc1 | · | 0.5 | -3.5% | 2.1% | · | · | 47
CC(=O)N(CCCc1ccc(C(C)(C)C)cc1)CCCN(C)C | -9 | 1.0 | -2.3% | · | 8% | -1.0 | 3
COc1ccc(-c2cc(C(=O)NCCc3ccccc3)c3c(-c4ccccc4)[nH]nc3n2)cc1OC | · | 1.4 | 395% | 0.1% | · | · | -5
COC(=O)c1scc(-c2ccc(C)cc2)c1S(=O)(=O)N1CCN(c2ccccc2F)CC1 | · | 1.8 | -1.3% | 2.2% | · | · | 72
CCOc1ccc2c(c1)C(C)=CC(C)(C)N2S(=O)(=O)c1ccc(C)cc1 | 2 | 2.0 | · | 3.0% | -12% | 0.8 | 67
COC(=O)c1ccc(NC(=O)C2CCN(S(=O)(=O)c3ccc4c(c3)CCCN4C(C)=O)CC2)cc1 | · | 1.1 | -0.9% | -1.6% | · | · | 2
Cn1cc(-c2ccccc2C(N)=O)c(=O)c2cc(Cl)ccc21 | -5 | -1.4 | · | 1.3% | 14% | 0.0 | 7
COc1ccc(/C(C)=N/NC(=O)c2ccc(CSc3nncn3C)cc2)cc1 | 7 | -0.4 | · | 3.3% | 2% | -3.8 | 24
C/C(=N\OCc1ccccc1C#N)c1cc2ccccc2o1 | -9 | -0.5 | · | 7.3% | -10% | -3.8 | 5
CC(C)NC(=O)Nc1ccc2c(c1)CC(=O)N([C@@H](C)CO)C[C@H](C)[C@@H](CN(C)C(=O)NC1CCCCC1)O2 | · | -0.3 | 2.6% | -0.5% | · | · | -5
COc1ccc(OC)c(-c2cc(C(=O)Nc3c(C)nn(Cc4ccc(Cl)cc4)c3C)no2)c1 | 2 | 3.0 | 35µM* | 20%[38.3 µM] | 9% | 2.5 | 1
Cn1c(CCNC(=O)c2ccco2)nc2cc(NS(=O)(=O)c3ccc(Cl)cc3)ccc21 | 1 | -0.5 | 0.4% | -6.8%[38.3 µM] | 11% | 0.5 | 6
COc1ccc(C)cc1-n1cnnn1 | 8 | 0.7 | -18% | 1.5% | -4% | -0.6 | -5
Brc1cccc[n+]1Cc1cccc(C[n+]2ccccc2Br)c1 | · | 0.1 | -7.0% | 0.0% | · | · | ·
COc1ccc(Cl)cc1NC(=S)N(Cc1cccnc1)Cc1ccco1 | -6 | -0.5 | -1.0% | 1.7% | 4% | -4.7 | 38
COc1ccc(C(=O)COC(=O)c2cc(-c3cccs3)nc3ccccc23)cc1 | · | 1.3 | ? | -0.6% | · | · | 0
CN(C)c1nc(N)nc(Nc2ccccc2C#N)n1 | -7 | 2.2 | -2.2% | -1.2% | 11% | -2.1 | 11
CN1CCC(=O)N([C@H](CSc2ccccc2)Cc2ccccc2)CC1 | -2 | -0.8&-0.5 | -0.8%&-3.6% | -0.9% | 4% | -0.8 | 19
Cc1c(N=C2SCC(=O)N2/N=C/c2ccccc2Cl)c(=O)n(-c2ccccc2)n1C | 10 | 0.6 | -3.7% | 0.3% | 5% | -0.2 | -5
Cc1ccc(S(=O)(=O)N2CCCC(C(=O)NC3CCCC3)C2)cc1Cl (configuration not stated) | -7 | -1.7 | -1.4% | 2.6% | 20% | -0.4 | 7
Cc1ccc(S(=O)(=O)N2C[C@@H]3[C@H]4CC[C@H](C4)[C@@H]3[C@@H](C)[C@@H]2c2cccn2Cc2ccccc2)cc1 | · | 0.2 | -3.9% | -0.1% | · | · | 32
COc1ccc(C2(C)ON(c3ccccc3C(F)(F)F)C2=O)cc1 (configuration not stated) | 9 | 0.4 | -3.3% | -1.0% | · | · | -6
CCN(CC)S(=O)(=O)c1ccc(N(C)C)c(NC(=O)CSCc2c(C)noc2C)c1 | -12 | -0.2 | -2.3% | -0.4% | 5% | · | -5
COC(=O)Cc1ccc(NC(=S)NCc2ccccc2)cc1 | ? | -0.2 | -1.8% | -0.9% | -15% | -0.4 | 6
COc1nc(-c2ccccc2)ccc1-c1noc(-c2ccccc2)n1 | 9 | -0.1 | ? | 2.9% | -13% | ? | -3
C#CCN(C[C@@H]1[C@@H](OC(=O)NCc2ccco2)[C@@H](OC(=O)NCc2ccco2)Cn2c(=O)ccc(=O)n21)S(=O)(=O)c1ccc(C)cc1 | · | 0.4 | -0.3% | -0.8% | · | · | 12
Cc1ccccc1Cn1ccc(NC(=O)c2cnn3c(C(F)(F)F)cc(-c4ccco4)nc23)n1 | -23 | 0.2 | 1.5% | · | 2% | 11 | 7
CCOC(=O)c1sc(N)c(C#N)c1COC(=O)CNC(=O)c1ccccc1 | -1 | 1.1 | -7.5% | -1.1% | -10% | ? | 0
CCC1=C(OC(=O)N(CC)CC)N2C(=O)OC(=NCC3CC3)[C@]2(Cc2ccccc2)[C@H]2C1=CC[C@H]1C(=O)N(c3ccccc3)C(=O)[C@H]12 | -37 | -0.2 | 1.6% | 2.0% | 20%&4% | 4.9&9.0 | 27
Cc1cc(C)cc(NC(=O)NCC(O)COc2ccc([N+](=O)[O-])cc2)c1 (configuration not stated) | -14 | 0.9 | 0.5% | 1.3% | 5% | 2.8 | -20
Cc1nc(SCC(=O)NC(=O)NC2CCCCC2)nc(C)c1C | 0 | -1.6 | 0.0% | 3.1% | 50µM* | 1.5 | -2
CCOC(=O)N/N=C(/C)c1ccc([N+](=O)[O-])o1 | 21 | · | · | · | 2% | 2.2 | ·
O=C(Cn1cc(C(F)(F)F)cc(Cl)c1=O)NCc1ccccc1 | 5 | -0.3 | · | 0.6% | 4% | 1.5 | -12
CC(=O)c1cc(-c2ccc(F)cc2)n(CCC(=O)Nc2nc3ccc(C)cc3s2)c1C | · | 0.4 | -1.5% | 0.9% | · | · | 24
CC(=O)NC(c1ccc(Cl)cc1)c1c(O)ccc2ccc(O)cc12 (configuration not stated) | 14 | -0.1 | · | 5.9% | 10% | 2.0 | -15
C(=C\c1ccncc1)/c1ccncc1 | -3 | · | -6.4% | 1.3% | 14% | 2.6 | ·
C=CCn1c(SCC(=O)Nc2ccc3c(c2)OCO3)nc2ccccc2c1=O | -5 | 1.4 | -1.5% | 1.7%[38.3 µM] | ? | 1.0 | 22
Cc1cc(C)c2sc(NC(=O)c3ccc(N4C(=O)CCC4=O)cc3)nc2c1 | 2 | -0.9 | 1.4% | 3.5% | 20% | -0.4 | 0
O=C(NCC1CC1)c1cccc2c1C(=O)c1ccc(-c3ccc(OC(F)(F)F)cc3)cc1S2(=O)=O | · | 0.0 | -2.0% | 5.6% | · | · | -14
CCOC(=O)C1=C(C)N(CC(C)C)C(=O)/C1=C\c1ccc(OCC(=O)Nc2ccccc2)cc1 | -3 | 1.1 | -0.3% | 2.5% | 8% | -0.4 | 17
CC(=O)N1[C@H](Cc2ccccc2)C=C[C@]1(C)C(=O)NCCN1CCOCC1 | 24 | -0.5 | -0.9% | 9.0% | 11%&17% | 5.7&-1.4 | -13
Cn1c(SCC(=O)OC2CCCCC2)nnc1-c1ccco1 | -10 | 3.4 | -0.7% | -2.6% | 1% | 4.1 | 0
CC(=O)c1cccc(NC(=O)c2cc(-c3cccs3)on2)c1 | -1 | 0.8 | · | 9.6% | 3% | 0.2 | -23
CC1CN(C(=S)Nc2ccc(Br)cc2Cl)CC(C)O1 (configuration not stated) | 5 | 0.4 | -1.6% | 3.9% | 9% | · | 9
Cc1sc2ncnc(N)c2c1C | ? | · | -3.3% | 1.2% | 8% | 3.4 | ·
CN1CCCCc2c1nc1c(c2N)CCCC1 | ? | 0.4 | 25µM* | 1.6%[38.3 µM] | -14% | -7.7 | 2
CCOc1ccc(NC(=O)CN2CCN(CC(=O)Nc3cc(OC)cc(OC)c3)CC2)cc1 | 19 | 0.4 | 0.4% | -0.3% | 6% | 8.4 | 12
CCOc1ccccc1NC(=O)C1CCCN(C(=O)NCc2ccccc2)C1 (configuration not stated) | -17 | -0.5 | -0.9% | 0.5%[38.3 µM] | 13% | -0.3 | 6
CCN(CC)S(=O)(=O)c1ccc(OC)c(NS(=O)(=O)Cc2ccccc2)c1 | 7 | 0.4 | -0.8% | 2.9% | 25% | 1.5 | -18
CC1CCN(c2nc3c(c(=O)[nH]c(=O)n3C)n2CCCc2ccccc2)CC1 | 1 | -0.8 | 0.7% | -0.1% | -2% | 8.5 | -5
COc1ccc(N(Cc2cccs2)C(=O)COc2ccc([N+](=O)[O-])cc2)cc1 | · | 1.3 | -0.6% | -0.1% | · | · | 18
Cc1ccc(NC(=O)Cn2nc(C)c3ccccc3c2=O)cc1 | 23 | -0.8 | 0.1% | 1.1% | 8% | -0.2 | 3
CC(CC(=O)Nc1ccc(S(=O)(=O)N2CCOCC2)cc1)c1ccccc1 (configuration not stated) | -17 | -0.2 | · | 0.4% | 5% | 12 | -7
CC(=O)Nc1ccc2c(c1)n(C)c(=O)n2C | -9 | 0.5 | -1.4% | ? | 20% | 5.2 | -8
CCSc1ncc(Cl)c(C(=O)Nc2c(C(=O)Nc3ccccc3)oc3ccccc23)n1 | · | 0.3 | -0.3% | -0.1% | · | · | 11
Cc1ccc2c(c1)cc1c(=O)n(CC(=O)NCCN3CCCC3)nc(C)n12 | 2 | 0.8 | 4.0% | 1.1% | 2% | · | -14
Cc1cc(C(=O)NNC(=S)NCC(C)C)cs1 | -5 | 1.3 | -0.6% | 1.6% | 25% | 4.3 | 13
Cc1cccc(C(=O)OC(C)CN2CCOCC2)c1 (configuration not stated) | -7 | 0.8 | -1.7% | 6.3% | 19% | -0.5 | 49
C=CCNC(=O)COC(=O)c1nc2nccc(C)n2n1 | -6 | 1.0 | -2.5% | -0.6% | 12% | 1.5 | 13
S=C(NC1CCCC1)N1CCN(C/C=C/c2ccccc2)CC1 | -8 | -0.3 | · | -0.5% | 12% | -6.5 | 32

Structures listed so far that bear a hit mark in Sfp PPTase inh.
SMILES	PINK1 modulator	Sfp PPTase inh	Menin MLL FP FL	TRPML1 inh
Cc1nc(SCC(=O)NC(=O)NC2CCCCC2)nc(C)c1C	3.1%	50µM*	1.5	-2

Assay outcomes from PubChem BioAssay.
